Source: PubChem
Vif TR-FRET – HIV-1 Vif–A3G interaction blockers – biochemical, TR-FRET, GST-Vif 1-94, biotin-A3G peptide, dose response retest, primary screen (AID 1117319) | TR-FRET GST-Vif / biotin-A3G peptide binding; higher % means a stronger effect; test concentration not given here; strong numbers were not always called active | inhibition, %, or IC50 in µM where a hit was titrated | 260,000 compounds, 0.57% hits;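 active = above the screen mean plus three standard deviations and confirmed in dose response; inconclusive = results disagree or hit not tested in dose response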;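 also: Vif residues 1-94 fused to GST binding biotinylated APOBEC3G peptide 110-148; 0% = full assay without inhibitor and 100% = GST in place of GST-Vif; retest series ran down from 100 µM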
A1 inh – inhibitors of the anti-apoptotic protein A1, read as caspase activation; caspase activation, % (no concentration beside the values); 330,000 compounds, 0.066% hits; MEF A1-2A-BIM cells, Caspase-Glo 3/7 luminescence, 3 h; percent of clofoctol response, vehicle zero;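 active = over half of replicate activation scores above 10%, or exactly half above 10 with the replicate mean above 10; inconclusive = replicate mean below 10 yet half the replicates above 10; inactive = over half of replicates below 10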;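 also: wells of about 30 µL received 50 nL stock; many hits fall short of the cut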
LANA-H2A inh – blocks KSHV LANA binding to histone H2A/H2B; cell-free LANA-H2A/H2B peptide, fluorescence polarization; inhibition, % (concentration not given with the values); 320,000 compounds, 0.6% hits; AID 2629; in the data active = inhibition mostly above about 10%, no sharp cut-off; inactive = mostly below about 6.7%;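 also: stock transfer was 7.5 nL into about 10 µL; 0% = median of vehicle wells and 100% = median of positive control wells; one replicate is shown; the record names a cut of 25% in any replicate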
Target sequence (Q9QR71 whole entry, looked up): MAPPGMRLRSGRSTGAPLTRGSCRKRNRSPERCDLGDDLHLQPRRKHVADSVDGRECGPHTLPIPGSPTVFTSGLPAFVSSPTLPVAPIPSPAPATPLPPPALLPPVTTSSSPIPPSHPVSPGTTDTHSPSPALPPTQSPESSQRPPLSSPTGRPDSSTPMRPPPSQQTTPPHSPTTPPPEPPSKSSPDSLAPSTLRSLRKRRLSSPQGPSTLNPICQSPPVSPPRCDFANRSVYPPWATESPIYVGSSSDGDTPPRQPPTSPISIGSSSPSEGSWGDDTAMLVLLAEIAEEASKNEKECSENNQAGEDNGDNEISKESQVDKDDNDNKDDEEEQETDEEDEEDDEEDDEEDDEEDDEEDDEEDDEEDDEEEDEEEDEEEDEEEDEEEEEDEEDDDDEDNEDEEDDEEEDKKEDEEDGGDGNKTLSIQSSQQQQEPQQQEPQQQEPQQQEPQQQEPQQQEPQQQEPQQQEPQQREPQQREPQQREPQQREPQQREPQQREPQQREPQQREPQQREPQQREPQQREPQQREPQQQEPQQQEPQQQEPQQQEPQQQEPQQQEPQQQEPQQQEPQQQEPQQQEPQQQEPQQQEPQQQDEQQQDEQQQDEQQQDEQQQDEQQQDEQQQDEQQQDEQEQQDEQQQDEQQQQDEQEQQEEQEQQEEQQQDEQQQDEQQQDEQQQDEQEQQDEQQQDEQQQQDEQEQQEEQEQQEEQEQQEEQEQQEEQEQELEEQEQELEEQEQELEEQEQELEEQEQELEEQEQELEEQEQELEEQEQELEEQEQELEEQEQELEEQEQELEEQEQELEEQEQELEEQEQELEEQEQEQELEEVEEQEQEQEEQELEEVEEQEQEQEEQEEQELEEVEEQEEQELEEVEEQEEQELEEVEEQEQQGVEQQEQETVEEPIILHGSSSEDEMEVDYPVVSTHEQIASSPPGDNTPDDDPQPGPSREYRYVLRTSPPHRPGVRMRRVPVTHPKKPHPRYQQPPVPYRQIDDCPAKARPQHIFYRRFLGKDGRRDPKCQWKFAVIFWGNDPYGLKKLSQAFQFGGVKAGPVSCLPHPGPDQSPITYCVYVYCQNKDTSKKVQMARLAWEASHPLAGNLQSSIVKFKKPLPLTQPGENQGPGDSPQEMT
Beta2AR agonist – human beta-2 adrenergic receptor agonism by FAP | P07550 | Am2.2-beta2AR cells, FAP receptor internalization, flow cytometry; reference of the scale not given here | response, % (concentration not given with the values) | 340,000 compounds, 0.43% hits | AID 504454;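 active = response above a set limit, near 3 SD of response in nonfluorescent compounds, cut at about 42% in these data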;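 also: stock transfer was 100 nL into about 11 µL; a reference agonist was the positive control; negative values mostly stem from fluorescent compounds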
UCH37 DUB inh – blocks the human deubiquitinase UCH37; Q9Y5K5; purified proteasome/UCH37, Ub-AMC cleavage fluorescence; inhibition, % (no concentration beside the values); 330,000 compounds, 0.33% hits;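 active = mean of two replicates above 20%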;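 also: 0% = compound-free wells with enzyme and 100% = wells lacking proteasome; stock transfer was 100 nL into about 20 µL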
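Material: Human UCH37 enzyme supplied as purified proteasome complex | Schedule: 30 min preincubation with enzyme, 25 min cleavage at room temperature | Detection: AMC fluorescence 355/460 nm | Measure: % inhibition of Ub-AMC cleavage fluorescence | Controls: Wells without proteasome as full block, compound-free enzyme plus substrate as uninhibited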
HNF4A DNA FP – change in binding of human HNF4 alpha to DNA. HNF4a-FITC DNA binding, fluorescence polarization, 1 h. activity change, % at 10 µM. 360,000 compounds, 0.3% hits. AID 1224865; in the data active = activity change above about 30%, passing the limit was not always enough;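 also: controls were the assay level and a saturating level of protein; the project sought stronger binding though the title names inhibitors; some compounds called inactive have numbers as strong as hits; positive values seem to mean higher polarization but the record does not say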
Ecoli growth – E. coli growth inhibition. Escherichia coli growth, OD600, 23 h; stronger effect = lower value. OD600 absorbance (no concentration beside the values). 330,000 compounds, 0.21% hits;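 active = OD600 absorbance below the run mean of sample wells minus 3.6 SD, in any replicate, cut at about 0.56 in these data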;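 also: stock transfer was 300 nL into about 60 µL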
An asterisk follows results filed as active; ? = inconclusive; · = no result given. Random draw from the library, and some 2.1% of all compounds hit somewhere here.

SMILES	Vif TR-FRET	A1 inh	LANA-H2A inh	Beta2AR agonist	UCH37 DUB inh	HNF4A DNA FP	Ecoli growth
OC1C2CCC(C2)C1CN1CCOCC1 (stereo not drawn)	4.3%	·	·	-3.0	1.3	-1.2	0.66
Cc1ccc(Cl)c(OC(=O)Cn2cnc3c2c(=O)n(C)c(=O)n3C)c1	7.3%	0.5	4.0	-0.9	1.8	-1.2	0.664
Fc1c(F)c(F)c(CSc2nc3ccccc3[nH]2)c(F)c1F	1.7%	-1.1	-4.9	-1.7	2.8	-0.2	0.724
Clc1ccc(C(c2nnnn2C2CCCC2)N2CCN(c3nc4ccccc4s3)CC2)cc1 (stereo not drawn)	·	0.1	1.3	-2.6	-1.3	0.5	0.726
COC(=O)CC(NC(=O)c1ccc(C)cc1)c1ccccc1 (stereo not drawn)	-4.3%	-1.1	0.0	1.4	3.6	-1.8	0.696
CN(c1ccccc1C(N)=O)S(=O)(=O)c1ccccc1	14.9%	-1.5	-1.5	-3.9	3.8	3.2	0.716
CC(C)(C)OC(=O)NCCc1nnc(SCc2cccc(Cl)c2)o1	?	2.5	2.2	-4.0	1.5	0.4	0.668
O=C(O)CCN1CCc2ccccc2C1c1cccs1 (stereo not drawn)	17.7%	0.1	4.3	-7.5	1.3	1.5	0.694
CC1CCCC(NC2CCCCNC2=O)C1 (stereo not drawn)	19.0%	0.5	-1.3	-10.2	-1.6	-0.5	0.735
CCOC(=O)c1c(NC(C)=O)sc2c1CCC(C=NCCCN(CC)CC)=C2Sc1ccccc1	·	0.2	-6.0	-920.8	3.8	-16.3	0.717
CC(Oc1ccc(Cl)cc1)C(=O)Nc1ccc(S(=O)(=O)N2CCOCC2)cc1 (stereo not drawn)	·	-0.1	-0.8	-0.6	6.4	-4.7	0.718
CC1(C)Cc2c(sc3nc4n(c(=O)c23)CCC4)CO1	21.4%	-0.4	1.9	-1.2	-2.6	0.6	0.688
Cc1ccc(C)c(NC(=O)CCN2CCCC(C)C2)c1 (stereo not drawn)	3.0%	-0.4	-8.4	-1.4	1.2	0.8	0.674
Cc1ccccc1CN(c1ccc(C(=O)NCc2ccccn2)cc1)S(C)(=O)=O	-1.3%	1.2	-1.1	-3.0	0.6	-6.2	0.648
CC(OC(=O)CSc1ccc([N+](=O)[O-])cc1)C(=O)NCc1ccco1 (stereo not drawn)	-5.2%	0.9	-6.6	-0.6	4.6	-1.4	0.692
Cc1noc(C)c1C(=O)Nc1ccc(N(C)C)cc1	·	0.0	-3.4	6.7	6.1	-1.7	0.673
CN1CCN(Cc2cc(=O)oc3ccc(Cl)cc23)CC1	7.8%	-0.3	2.2	10.3	-1.8	1.2	0.687
COc1cc(/C=N/NC(=O)c2cccc3ccccc23)cc(OC)c1O	5.0%	0.7	2.0	2.2	·	4.2	·
CCCn1c(=O)[nH]c(=O)c2c1nc(-c1ccc3c(c1)OCCO3)n2CCN1CCOCC1	-1.8%	0.6	3.6	-1.1	-3.8	-2.5	0.679
O=C(NCC(=O)N1CCN(Cc2ccccc2)CC1)c1ccc(Cl)cc1	·	-0.1	2.4	0.4	0.4	2.1	0.651
COc1ccc(C(=O)C2CCN(C(=S)NCCc3ccc(OC)c(OC)c3)CC2)cc1	9.2%	-0.6	2.0	-8.9	2.1	1.6	0.667
Cc1ccc(S(=O)(=O)N2[C@@H](c3cccc(Cl)c3)C(C(=O)O)=CC[C@H]2c2cccs2)cc1	·	-0.3	-2.3	-1.4	0.9	-1.9	·
COc1cc(C(=O)OCC(=O)Nc2cccc(S(=O)(=O)N3CCOCC3)c2)ccc1OCC(C)C	0.7%	-0.1	-1.3	-8.2	0.4	-3.1	0.7
O=C(CNC(=O)c1cccc(Br)c1)N/N=C/c1cccs1	·	1.0	-3.3	-5.5	·	-2.0	·
Cc1ccc(S(=O)(=O)/C(=C/Cl)NC(=O)c2ccccc2)cc1	4.1%	0.1	-4.9	2.5	5.6	0.6	0.723
Additional results
SMILES	Vif TR-FRET	A1 inh	LANA-H2A inh	Beta2AR agonist	UCH37 DUB inh	HNF4A DNA FP	Ecoli growth
CN(C)C(=O)COC(=O)/C=C/c1cn(-c2ccccc2)nc1-c1cccs1	-5.0%	-1.2	-1.6	-28.2	-24.4	-8.3	0.704
COc1ccc(S(=O)(=O)NC2CC(=O)N(c3ccc(C)c(C)c3)C2)cc1 (stereo not drawn)	2.7%	0.0	1.8	5.9	4.8	-1.2	0.659
Cc1cc(Cl)ccc1OCC(=O)NCCOc1nc(N2CCCCC2)nc(N2CCOCC2)n1	0.7%	·	·	-4.7	1.3	2.3	0.663
COc1cccc(CNC(=O)CCNS(=O)(=O)c2cccs2)c1	1.44µM*	0.2	0.2	3.8	4.2	1.7	0.752
COC(=O)c1ccccc1NC(=O)CN(c1ccc(C)cc1)S(C)(=O)=O	·	0.4	4.8	8.2	2.2	-3.6	0.662
CCCN(CC(=O)Nc1ccccc1C)C(=O)c1ccc(N2CCCC(C)C2)c([N+](=O)[O-])c1 (stereo not drawn)	2.5%	·	·	-9.2	3.5	-0.7	0.716
CCOC(=O)c1cc(C(=O)Nc2ccccc2F)nn1C	-5.3%	0.4	-8.5	-10.3	6.5	1.9	0.692
COc1ccccc1NC(=O)c1ccc(-c2ccc(Br)cc2)o1	-5.3%	0.6	-0.2	-8.9	-36.4	-4.3	0.779
CC(C)C(=O)Nc1ccccc1-c1nc2ccccc2[nH]c1=O	·	-1.7	-3.9	1.3	1.5	4.4	0.66
NS(=O)(=O)c1ccc(Sc2ccc3ccccc3c2)nc1	·	0.5	6.6	7.0	4.4	-1.8	0.593
Cc1nn(C(C)C(=O)NCc2cccs2)c(C)c1[N+](=O)[O-] (stereo not drawn)	-3.9%	0.5	-1.2	6.3	0.2	0.1	0.651
COc1ccc(NC(=O)CCC(=O)OC(C(=O)c2ccccc2)c2ccccc2)cc1 (stereo not drawn)	29.2%	0.8	2.3	1.8	0.7	-2.8	0.724
COc1ccc(OCc2cc(C(=O)NC3CCOC(C)(C)C3)no2)c2ccccc12 (stereo not drawn)	·	-0.9	-2.0	21.7	·	2.1	·
C=CCn1c(SCC(=O)N2CCCC2)nc2c([nH]c3ccccc32)c1=O	·	0.0	0.9	7.8	3.4	3.2	0.696
COCCn1nnnc1CN1CCN(c2cccc(C(F)(F)F)c2)CC1	8.3%	-0.5	-2.1	-2.9	0.2	2.8	0.749
O=C(NC(c1ccc(Cl)cc1)c1c(O)ccc2ccccc12)c1ccccc1 (stereo not drawn)	·	1.3	-2.2	32.6	5.2	-0.8	0.669
COC(=O)c1ccccc1OCCN1CCCCCC1	-3.4%	0.8	0.4	1.2	4.9	-1.2	0.683
CCS(=O)(=O)NCC(c1cccnc1)N1CCN(c2ccc(F)cc2)CC1 (stereo not drawn)	1.9%	0.6	-2.4	3.3	-0.5	-1.0	0.728
CC(C)C[C@H](NC(=O)c1nc[nH]c1C(=O)NCc1ccccc1)C(=O)OC(C)(C)C	4.0%	0.9	1.8	-0.6	5.4	-4.3	·
CN1C(=O)SC(Nc2cccc3ccccc23)C1=O (stereo not drawn)	2.6%	-0.5	-0.5	0.2	-4.0	-1.8	0.745
c1ccc(-c2nc(N3CCOCC3)sc2-c2ccccc2)cc1	5.1%	0.7	0.0	7.6	-10.6	1.0	0.67
COc1cc(/C=C(\C#N)C(=O)NC2CCCCC2C)ccc1OS(=O)(=O)c1ccc(C)cc1 (stereo not drawn)	?	0.1	-6.9	12.2	2.3	1.5	0.709
C=CCS/C(=N\n1cnc2ccccc2c1=O)N1CCCCC1	1.9%	0.2	-2.5	1.8	·	-1.1	·
CC(=O)Nc1nc(CC(=O)c2ccccc2)cs1	·	-0.2	-0.3	-2.1	6.1	5.7	0.754
COC(=O)CC1SC(=O)NC1=Nc1cccc(C)c1 (stereo not drawn)	-0.7%	0.2	1.5	7.1	3.0	0.8	0.768
The listing continues.
SMILES	Vif TR-FRET	A1 inh	LANA-H2A inh	Beta2AR agonist	UCH37 DUB inh	HNF4A DNA FP	Ecoli growth
C/C(=N\NC(=O)c1cc(C)nc2ccccc12)c1ccncc1	-6.2%	0.2	0.5	4.7	·	-3.7	·
Cc1nc2ccc(S(=O)(=O)NCC(=O)N3CCc4ccccc43)cc2s1	-4.8%	-0.5	-0.1	-6.9	2.3	0.5	0.691
Cc1cc(C(=O)CSc2nnc(-c3cccs3)n2Cc2ccccc2)c(C)n1C	2.0%	0.2	-0.7	-8.9	5.9	0.2	0.708
C=CCn1cc(C(=O)OC)c(=O)c2cc(S(=O)(=O)N3CCCCCC3)ccc21	-2.0%	0.3	4.0	-7.1	1.5	1.3	0.705
O=C(CC(=O)Nc1nc(C23CC4CC(CC(C4)C2)C3)cs1)NCCO	-0.5%	-0.2	8.3	-1.8	4.6	-2.9	0.667
CN(C)CCNC(=S)NC1CCCCC1	?	-0.1	-0.6	1.5	1.1	0.1	0.613
CC(C)CCn1nnnc1C(c1ccc(F)cc1)N1CCN(C(=O)c2ccco2)CC1 (stereo not drawn)	0.6%	-0.1	-0.9	1.0	3.3	1.1	0.736
Cc1ccc([N+](=O)[O-])cc1S(=O)(=O)N1CCC(C)CC1	15.6%	0.2	-3.8	5.3	1.3	-0.5	0.664
CCCN(CCC)S(=O)(=O)c1ccc(C(=O)Nc2ccc(S(=O)(=O)Nc3nnc(CC)s3)cc2)cc1	·	2.0	0.1	5.1	0.0	-2.1	0.643
CC(=O)c1sc(NC(=O)CS(=O)(=O)c2ccc(F)cc2)nc1C	0.4%	0.2	3.6	-4.8	10.4	1.9	0.66
COc1ccc(-n2nc(C(=O)NCC(=O)NC3CCCCC3)c3ccccc3c2=O)cc1	·	1.1	-0.1	-7.2	-1.4	-0.4	0.711
COc1ccc(S(=O)(=O)N2CCC(C(=O)NCc3cccnc3)CC2)cc1Cl	58.5%	1.1	-0.5	0.0	4.7	-0.8	0.664
CC(=O)Nc1ccc(NC(=O)CC(c2ccccc2)c2ccccc2)cc1	-1.7%	-0.7	2.1	-2.9	2.5	2.3	0.618
CC(C)(C)C1CCC(C(=O)Nc2ccc(N3CCOCC3)cc2N2CCOCC2)CC1 (stereo not drawn)	·	1.4	-4.5	0.4	1.8	1.1	0.667
C=CCn1c(O)c(N=NC(=O)OCC)c2ccccc21	?	0.3	4.7	-23.4	1.8	2.6	0.685
Cc1ccc(OCc2nnc(SCc3cc(=O)[nH]c4ccccc34)n2-c2ccccc2)cc1	·	0.6	2.5	3.7	3.6	3.4	0.692
Cc1ccc(Cl)cc1NS(=O)(=O)c1ccc2c(c1)NC(=O)C(C)C(=O)N2 (stereo not drawn)	·	0.2	0.4	-1.9	3.4	3.6	0.72
CCOc1ccc(-n2c(Cc3cc(=O)[nH]c(=O)[nH]3)nnc2SCC(=O)Nc2nnc(C)s2)cc1	2.6%	-0.2	-2.1	-5.3	3.5	1.7	0.695
COc1cc(C2C3=C(CC(c4ccco4)CC3=O)Nc3ccccc3N2C(C)=O)cc(OC)c1OC (stereo not drawn)	?	-0.5	-6.5	1.4	-1.0	-0.8	0.73
CCOC(=O)CNc1nc(Cl)nc(Nc2ccc(C)cc2)n1	·	1.1	2.6	7.2	5.1	4.3	0.721

Rewritten with values under each structure: entries from further up.
Screens in order: Vif TR-FRET	A1 inh	LANA-H2A inh	Beta2AR agonist	UCH37 DUB inh	HNF4A DNA FP	Ecoli growth
C/C(=N\NC(=O)c1cc(C)nc2ccccc12)c1ccncc1
→ -6.2%	0.2	0.5	4.7	·	-3.7	·
Cc1nc2ccc(S(=O)(=O)NCC(=O)N3CCc4ccccc43)cc2s1
→ -4.8%	-0.5	-0.1	-6.9	2.3	0.5	0.691
Cc1cc(C(=O)CSc2nnc(-c3cccs3)n2Cc2ccccc2)c(C)n1C
→ 2.0%	0.2	-0.7	-8.9	5.9	0.2	0.708
